Bioassay records deposited in PubChem by PCMD.
Calb biofilm kill = mixtures killing C. albicans biofilm. 120,000 compounds, 0.02% hits. C. albicans biofilm persisters + clotrimazole, fluorescence viability; primary screen in compound mixtures of four per well. inhibition, % at 7.6 µM;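 active = inhibition above 30.3% in the primary screen of four-compound pools, then above 30% when the compound was retested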;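 note: compounds exposed to preformed 24 h biofilms for 48 h; the number belongs to the whole pool; some results filed as inactive read as strong as hits; inactives centre near 12; 0% = biofilm with clotrimazole alone and 100% = kill control; retested singly at about 60 µM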
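Incubation: 24 h biofilm formation, then 48 h compound exposure, 37 °C | Material: C. albicans biofilms | Buffer or medium: RPMI/MOPS medium, pH 7.0 | Measured by: 2-h Alamar Blue fluorescence, 535/590 nm excitation/emission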
An asterisk follows results filed as active. This is a subset (hit frequency here may not be typical).

SMILES	Calb biofilm kill
COc1ccccc1OCc1ccc(C(=O)NCC(C)C)o1	13
Cc1cc(NC(=O)COC(=O)c2ccco2)no1	17
NC(N)=NS(=O)(=O)c1ccc(N)cc1	14
CCCNC(=O)Nc1cccc(NC(C)=O)c1	13
Cc1ccc(NC(=O)CN2CCCCC2)c2c1CC(C)(C)O2	16
Cc1ccc(N/N=C(\C#N)C(=N)N2CCCCCC2)cc1	3
O=C(O)CCCC(=O)NNC(=O)c1cccc(Br)c1	16
CCOC(=O)Cn1c(=NC(=O)c2cc(-c3cccs3)nc3ccccc23)sc2cc(S(N)(=O)=O)ccc21	29
O=C(COc1ccccc1Cl)Nc1cc(Cl)ccc1O	10
Cc1ccc2cc(C3CC(c4ccco4)=NN3C(=O)CCCC(=O)O)c(Cl)nc2c1 (stereo unspecified)	-2
O=C(/C=C/c1ccccc1)NC(=S)N1CCSCC1	2
O=c1[nH]c(Cc2ccc(F)cc2)nc2scc(-c3ccc(F)cc3)c12	12
CCOC(=O)c1[nH]c2ccc(OC)cc2c1NC(=S)N1CCN(c2ccccc2)CC1	9
Cc1cc(NC(=O)c2ccc(Cl)cc2)c(C)cc1O	8
CCCCN1C(=O)N(c2nnc(C(C)(C)C)s2)C(O)C1c1ccc(C)cc1 (stereo unspecified)	19
Cc1cc(NC(=O)/C(C#N)=C/c2ccc(-c3cccc(C(F)(F)F)c3)o2)n(-c2ccccc2)n1	14
O=C1/C(=C/c2ccc(O)c(O)c2)Oc2cc(O)ccc21	19
c1ccc2c3c(c(CN4CCCC4)cc2c1)COC3	10
COc1ccc(-c2ccc(S(=O)(=O)NCC3CCCO3)cc2)cc1 (stereo unspecified)	7
O=C(Nc1ccc(Cl)c(Cl)c1)Nc1ccccc1C(=O)O	6

Rewritten field by field: entries from further up
SMILES: Cc1ccc(N/N=C(\C#N)C(=N)N2CCCCCC2)cc1
  Calb biofilm kill: 3

SMILES: O=C(O)CCCC(=O)NNC(=O)c1cccc(Br)c1
  Calb biofilm kill: 16

(list continues)
SMILES	Calb biofilm kill
CCc1ccc(CN(C)CC(=O)Nc2sccc2C#N)cc1	-5
NC(=O)c1ccccc1NC(=O)/C=C/c1ccccc1	17
CC(C)(C)NC(=O)Nc1ccc(Cn2cc(C(F)(F)F)ccc2=O)cc1	14
COc1ccc(N(C)C(=S)Nc2ccc3nc(C)c(C)nc3c2)cc1	4
S=c1[nH]nc(-c2cccs2)n1/N=C/c1cn(-c2ccccc2)nc1-c1ccc(Cl)cc1	16
CN(C)S(=O)(=O)c1ccc(C(=O)NC(=O)CSc2ccccc2)cc1	21
CC(C)(C)c1ccc(CS(=O)CC(O)CO)cc1 (stereo unspecified)	3
CCc1cc(C(c2ccc(OC)c(OC)c2)N2CCOCC2)c(NC(=O)c2ccccc2)s1 (stereo unspecified)	11
O=C(Cc1ccccc1F)OCC(=O)N1CCN(C(=O)c2ccco2)CC1	15
COc1cc(C(=O)OCC(=O)Nc2ccc(SC(F)F)cc2)cc(OC)c1OC	-5
Nc1ccc2nc(CCCCCCc3nc4ccc(N)cc4[nH]3)[nH]c2c1	1
CC(C)Sc1nnc(CNC(=O)C23CC4CC(CC(C4)C2)C3)n1C1CCCCC1	19
COc1ccc(CNC(=O)COC(=O)Cc2ccsc2)cc1	-2
Cc1ccc(S(=O)(=O)NCCc2nnc3ccc(SCc4cccnc4)nn23)cc1	5
CCCCN1C(=O)NC(NC(=O)C2CC2)(C(F)(F)F)C1=O (stereo unspecified)	7
Oc1cccc2cc3cccc(O)c3c(O)c12	6
N#Cc1cc2cc3c(cc2nc1NCCNC(=S)NCCCN1CCOCC1)OCO3	1
CCOC(=O)C(=CNc1cc(C)ccc1-n1cccc1)C(=O)OCC	9
Cc1cc(C(=O)Cn2nc(C(=O)O)c3ccccc3c2=O)c(C)n1C1CC1	8
Cn1cccc1CNC(=S)Nc1ccccc1Cl	16
COc1ccc(/C=N/NC(=O)c2cccc(OC(F)(F)C(F)F)c2)cc1O	6
O=[N+]([O-])c1cc(Cl)cc(/C=N/NC(=S)Nc2ccc(S(=O)(=O)N3CCOCC3)cc2)c1O	23
Cc1ccc(S(=O)(=O)Nc2ccc3c(c2)CCC3)cc1C	7
O=C(O)/C=C/C(=O)Nc1ccc(-n2ccc(C(F)(F)F)n2)cc1	11
O=C(NCCc1ccc(F)cc1)C1CCCCC1	6
CC1CN(S(=O)(=O)c2cccc(C(=O)Nc3ccc4c(c3)CCC4)c2)CC(C)O1 (stereo unspecified)	18
COc1ccc(/C=C/C(=O)Nc2ccccc2C)cc1S(=O)(=O)N1CCOCC1	9
CC12CCC(C(N)=O)(C1Br)C2(C)C (stereo unspecified)	8
CCC(=O)Nc1ccc(N2CCN(C(=O)c3cccs3)CC2)cc1	15
O=C(O)c1csc(-n2nc(-c3ccccc3)cc2C(F)(F)F)n1	-2
COc1ccc(C)cc1NC(=O)C(OC(=O)CNC(=O)c1cc(C)cc(C)c1)c1ccccc1 (stereo unspecified)	22
Cc1ccc(-c2nc3ncccc3o2)cc1NC(=O)CC(C)C	4
O=C(COC(=O)Cn1cnc2ccccc2c1=O)Nc1cc(Cl)ccc1[N+](=O)[O-]	8
CC(C)c1ccc(/C=C/C(=O)NCCC2=CCCCC2)cc1	6
O=C(N/N=C1\CCc2ccccc21)c1ccccc1O	12
CCCCCOc1ccc(CSc2ncn[nH]2)cc1	15
CCn1c([N+](=O)[O-])nc2c1c(=O)[nH]c(=O)n2C	9
CCC(Sc1ccccn1)C(=O)Nc1cccc([N+](=O)[O-])c1 (stereo unspecified)	11
CC(=O)c1ccc(NC(=S)Nc2ccn(Cc3ccc(Br)cc3)n2)cc1	11
CC1CCc2cc(F)ccc2N1C(=O)CSc1nnc2c3cc(F)ccc3n(C)c2n1 (stereo unspecified)	18

Gathered by group: those above with a cyano group
SMILES	Calb biofilm kill
Cc1ccc(N/N=C(\C#N)C(=N)N2CCCCCC2)cc1	3
Cc1cc(NC(=O)/C(C#N)=C/c2ccc(-c3cccc(C(F)(F)F)c3)o2)n(-c2ccccc2)n1	14
CCc1ccc(CN(C)CC(=O)Nc2sccc2C#N)cc1	-5
N#Cc1cc2cc3c(cc2nc1NCCNC(=S)NCCCN1CCOCC1)OCO3	1

New compounds follow.
SMILES	Calb biofilm kill
Cc1cc(C)c(S(=O)(=O)Nc2ccc(C(N)=O)cc2)c(C)c1	18
Nc1nnc(-c2ccc(Cl)c(Cl)c2)s1	6
O=C(NCCCCCc1nc2ccccc2[nH]1)c1ccccc1Cl	14
Cc1ccc2[nH]c(O)c(N=NC(=O)C(C)n3cnc4ccccc4c3=O)c2c1 (stereo unspecified)	27
COCCNC(=O)Cn1cc(C(=O)c2cccs2)c2ccccc21	7
COc1ccc(CNC(=O)CSc2nnc(-c3cccnc3)n2N)cc1	29
CC(=O)N1c2ccccc2C2(O)N=C(C)SC12 (stereo unspecified)	4
NC(=O)C1CCN(C2=C(NS(=O)(=O)c3ccc(Cl)cc3)C(=O)c3ccccc3C2=O)CC1	25
CCN1CN(CCc2ccccc2)CNC1=S	14
COc1ccc(OC)c(NC(=O)c2cc3c(Cl)nc4ccccc4c3s2)c1	12
N#CCC(=O)NNc1c([N+](=O)[O-])cc(C(F)(F)F)cc1[N+](=O)[O-]	24
CC(C)CN(CC(C)C)C(=O)CCCC(=O)N(CC(C)C)CC(C)C	19
CSc1ccc(C(=O)C2CCCN(Cc3cccc4nccnc34)C2)cc1 (stereo unspecified)	5
Fc1ccc(NC(=S)NC2CCCCC2)c(F)c1F	13
CCN(CC)S(=O)(=O)c1cccc(NC(=O)COC(=O)CCC(=O)c2ccc(F)cc2)c1	15
O=c1c(Cl)c(NCc2ccccc2Cl)cnn1C12CC3CC(CC(C3)C1)C2	16
COCCn1nnnc1C(c1cccs1)N1CCCC(C)C1 (stereo unspecified)	-1
O=S(=O)(NC1CCN(Cc2ccccc2)CC1)c1ccc2ccccc2c1	0
O=C(NCC(c1cccnc1)N1CCOCC1)NC1CCCCC1 (stereo unspecified)	2
CCC/C(=N\NC(=O)Cc1csc(N2CCOCC2)n1)c1ccccc1	14

Fetched by structure from above:
SMILES	Calb biofilm kill
CSc1ccc(C(=O)C2CCCN(Cc3cccc4nccnc34)C2)cc1 (stereo unspecified)	5
COCCNC(=O)Cn1cc(C(=O)c2cccs2)c2ccccc21	7
CCN1CN(CCc2ccccc2)CNC1=S	14
O=C(NCCCCCc1nc2ccccc2[nH]1)c1ccccc1Cl	14
Fc1ccc(NC(=S)NC2CCCCC2)c(F)c1F	13
NC(=O)C1CCN(C2=C(NS(=O)(=O)c3ccc(Cl)cc3)C(=O)c3ccccc3C2=O)CC1	25

Going on with the list.
SMILES	Calb biofilm kill
CC(C)NC(=O)C1(c2ccccc2)CC1(Cl)Cl (stereo unspecified)	0
CCSc1nc2ccc(C)cc2cc1C#N	14
COc1ccc(NC(=S)NCCN2CCOCC2)cc1	13
COc1ccccc1/C=C/C1NC(=O)NC(C)=C1C(=O)OC(C)C (stereo unspecified)	18
CCOC(=O)C1=C(C)Nc2ccccc2N=C1NC(=O)Cc1ccc(OC)cc1	31
Cc1cccc(NC(=O)CN2C(=O)N/C(=C/c3cc(C)n(-c4ccncc4)c3C)C2=O)c1	-12
CC(C)n1nc(C(=O)N2CCN(S(=O)(=O)c3cccs3)CC2)c2ccccc2c1=O	23
Cc1cc(/C=N/NC(=O)c2c(Br)cnn2C)c(C)n1-c1cccc(Br)c1	14
COC(=O)[C@@H]1C[C@H]2CC[C@H](O)C[C@H]2N1Cc1ccc(N2CCN(C)CC2)cc1	17
CCOc1ccccc1Nc1nc(N)nc(CN2CCCCC2C)n1 (stereo unspecified)	27
O=C(N/N=C/c1cccc([N+](=O)[O-])c1)c1cc2ccccc2o1	4
Cc1cc(NC(=O)CSc2nnc(-c3ccc(O)cc3)o2)no1	18
S=C1NC(c2ccccc2)=CC(c2ccccc2)N1 (stereo unspecified)	14
Cc1ccc(NC(=O)C(c2ccc(Cl)cc2Cl)N2CCCC2)cc1 (stereo unspecified)	20
Cc1nnc(SCC(=O)Nc2ccc(Cl)cn2)s1	19
O=C(CN1CCCC1)Nc1ccc(Br)cc1	19
CC(=O)/C(=N/Nc1ccc(Br)cc1)Sc1cccc2cccnc12	13
Nc1nc(N2CCN(Cc3ccccc3)CC2)n[nH]1	-5
CC(=O)c1cnc2cc(-c3ccc(C)cc3)nn2c1C	5
COc1cc(-c2cc(C(=O)Nc3ccc(O)cc3)c3ccccc3n2)cc(OC)c1OC	15
COc1ccc(Cl)cc1NC(=O)c1cccc(NC(=O)CCC(=O)O)c1	8
O=C(CN1CCC(n2cnc3cc(F)ccc32)CC1)Nc1ccccc1Br	-1
COc1ccc(CC(=O)NCC(c2ccc(OC)cc2)N(C)C)cc1 (stereo unspecified)	21
Cc1cc(-c2ccc(C(=O)O)s2)cnc1N	13
COc1cccc(C(=O)Cn2c(=O)n(CCC(=O)NCC3CCCO3)c(=O)c3cc(OC)c(OC)cc32)c1 (stereo unspecified)	24
COCCn1c(C)cc(C(=O)COC(=O)c2ccc[nH]c2=O)c1C	7
CC(C)c1ccc(NC(=S)NN2CCN(C)CC2)cc1	14
NC(=S)Nc1ccc(F)cc1F	21
CCOC(=O)NNc1ccc2nonc2c1[N+](=O)[O-]	21
Brc1ccc(Cn2c(-c3cncs3)nc3ccccc32)cc1	5
COc1ccc(OCC2CCCN(Cc3nc(CC4CC4)no3)C2)cc1 (stereo unspecified)	22
CSc1nnc(-c2ccc(C(F)(F)F)cn2)o1	14
CC(C)(C)C(=O)NC1(C(F)(F)F)NC(=O)N(c2ccc(F)cc2)C1=O (stereo unspecified)	2
Cc1cc2c(c(=O)o1)C(c1ccc([N+](=O)[O-])o1)C(C#N)=C(N)O2 (stereo unspecified)	22
CC(C(=O)NCCCc1ccccc1)c1ccc([N+](=O)[O-])cc1 (stereo unspecified)	19
COc1ccccc1C(=O)NCc1ccccn1	16
C=CCn1c(CCC(O)COCCC)n[nH]c1=S (stereo unspecified)	19
S=c1[nH]nc(C2CCCCC2)n1/N=C/c1ccncc1	9
O=C(NNC(=S)NC(=O)c1ccccc1[N+](=O)[O-])c1ccccc1Cl	15
O=C(N/N=C/c1ccc[nH]1)c1ccc(O)cc1	32
O=C(NCCN1CCOCC1)c1cc(S(=O)(=O)Nc2ccccc2F)c(Cl)cc1Cl	23
O=C(Cc1ccc(Nc2nc(=S)[nH]c3ccccc23)cc1)NC1CCCCC1	6
COc1cc(/C=C/C(=O)CC(=O)/C=C/c2ccc(O)c(OC)c2)ccc1O	12
COc1ccccc1/C=C/C=N/NC(=O)Cc1cccn1C	12
C=CCn1c(/N=C/c2ccc3c(c2)OCO3)nc2ccccc21	14
COc1cc(/C=N/NC2=NC(C)(C)Cc3ccccc32)cc(OC)c1OC	30
COc1ccc(CN=C(N)N=C(N)N)cc1Cl	14
Nc1nnc(SCC(=O)Nc2ccc3nc(SCC(=O)Nc4ccccc4)sc3c2)s1	25
C/C(=N\NC(=O)C1(C)CC1(Br)Br)c1cccc(NC(=O)C2CCC2)c1 (stereo unspecified)	17
O=S(=O)(Nc1ccc(-c2csc(-c3ccccc3)n2)cc1)c1ccccc1	10
Cc1ccc(C2(c3noc(CN(C)CC4CCCCO4)n3)CCCC2)cc1 (stereo unspecified)	19
Cc1ccc(S(=O)(=O)N2CCSC2C(=O)O)cc1 (stereo unspecified)	16
Cc1ccc(C(=O)Nc2ccc(Cl)cc2C)c(Cl)c1	14
CN(C)/C(Cn1cncn1)=C1/N=C(c2c(F)cccc2F)OC1=O	11
CCOC(=O)N/N=C(\C)c1ccc(C)o1	12
COCC(=O)NNC(=O)Cc1ccc(Cl)cc1	15
CCCSC1=NN2CCCC(=O)N=C2S1	21

As entered above:
Calb biofilm kill result of O=C(Cc1ccc(Nc2nc(=S)[nH]c3ccccc23)cc1)NC1CCCCC1 is entered as 6
Calb biofilm kill result of O=C(O)CCCC(=O)NNC(=O)c1cccc(Br)c1 is entered as 16
Calb biofilm kill result of O=C(CN1CCCC1)Nc1ccc(Br)cc1 is entered as 19
